Source: PubChem
PK Bst: modulators of Bacillus stearothermophilus pyruvate kinase. partly purified Bacillus stearothermophilus pyruvate kinase, luminescence ATP production; ribose 5-phosphate activator present at AC10. Potency, µM. 1.2% of 51,000 active; in the data active means potency below about 11 µM; inconclusive means mostly about 12 µM to 25 µM; inactive means weaker than that;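 the screen sought inhibitors and activators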;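 further: potency means the concentration at half of the fitted maximal effect; scaled between full activation by ribose 5 phosphate and full inhibition by luteolin; about four in five hits inhibit and the cells do not say which; series up to 57 µM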
TsaE inh: displaces an ADP probe from E. coli YjeE (TsaE). 0.05% of 71,000 active. purified YjeE, fluorescence polarisation of a bound ADP probe. Potency, µM. P0AF67; active = well fitted falling curve; inconclusive = weaker or top-dose-only fall, or a rising curve; inactive = flat or poorly fitted curve;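 further: top concentration of the series not given in the record; excess ADP was the control for the full effect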
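Fluorescence polarization of a BODIPY Texas Red–ADP probe (2 uM) bound to purified YjeE (10 uM) was read after 15 min room-temperature incubation with compounds. Loss of polarization marks inhibitors; ADP serves as titrated control.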
Numbers without * were called inactive; i = inactive; ? = inconclusive; . = not tested or not shown. This is a subset; count on the stated rates, not on these rows.

no.	Molecule	PK Bst	TsaE inh
1	Cn1c(=O)c2c(nc(NCc3ccco3)n2C)n(C)c1=O	>57	i
2	CCNC(=O)c1ccc(NS(=O)(=O)c2ccccc2)cc1	>57	i
3	CCCSc1n[nH]c(NC(C)=O)n1	.	i
4	Cn1c(SCC(=O)c2ccc(-c3ccccc3)cc2)nnc1-c1ccco1	>11	i
5	COC1CCCCC1Nc1cc(C)ccc1C (stereo not given)	.	i
6	O=C(NCCNCCO)c1c(O)c2cccc3c2n(c1=O)CCC3	>57	i
7	COc1ccc(N(CC(=O)NCC2CCCO2)S(=O)(=O)c2c(C)noc2C)cc1 (stereo not given)	>57	i
8	COc1cc(OC)cc([C@H](CNc2ncnc3c2ncn3[C@@H]2O[C@@H](CO)[C@H](O)[C@@H]2O)c2ccccc2C)c1	.	i
9	CCOc1ccc(NC(=O)c2ccc(S(=O)(=O)N(C)C)cc2)cc1	.	i
10	Cn1c(SCC(=O)NC(C)(C)C)nc(O)cc1=O	>57	i
11	Cc1cccc(C)c1N(CC(=O)N1CCN(C)CC1)S(C)(=O)=O	>57	i
12	Oc1ccc(Oc2ncc(Cl)cc2Cl)cc1	>57	i
13	COc1ccc(C2C=C(c3ccccc3)Nc3ncnn32)cc1 (stereo not given)	>11	i
14	Cc1ccc(S(=O)(=O)C2(C(=O)N(C)C3CCCCC3)CC2)cc1	>57	i
15	O=C(Nc1ccccc1N1CCN(C(=O)c2ccccc2)CC1)c1ccc2c(c1)OCO2	>57	i
16	CN(C)C(=O)c1ccc(-c2nc(N3CCOCC3)c3ccccc3n2)cc1	.	i
17	O=C(CN1CCC(NC(=O)Nc2ccccc2-c2ccccc2)CC1)NCc1ccco1	>57	i
18	CCOC(=O)c1[nH]c(C)c(C(=O)NC2CCN(C(=O)OCC)CC2)c1C	>57	i
19	O=C(c1cccs1)N(Cc1ccco1)C1CCS(=O)(=O)C1 (stereo not given)	>57	i
20	CCc1ccc2[nH]c(=O)c(CN(CCN3CCCC3)C(=O)NC3CCCCC3)cc2c1	>57	i
21	O=C(Cn1cccc1C(=O)c1ccccc1)NCc1ccc2c(c1)OCO2	>57	i
22	O=C(O)C[C@H](S)C(=O)O	.	i
23	CCC(=O)Oc1c(S(=O)(=O)c2ccc(C)cc2)c(C)nn1C(C)(C)C	>57	i
24	O=C(NC1CCCCCCC1)C1CCN(S(=O)(=O)N2CCC3(CC2)OCCO3)CC1	>57	i
25	CC(=O)CC(=O)NC1C2CC3CC(C2)CC1C3 (stereo not given)	.	i
26	COc1ccc2[nH]c3ccc(OC)cc3c2c1	?	i
27	COc1ccc(-c2onc(C)c2-c2ccccc2)c(O)c1	>26	.
28	COc1ccc(OC)c(S(=O)(=O)n2ccnc2)c1	.	i
29	O=C(Nc1ccc(N2CCOCC2)c(F)c1)c1ccncc1	>57	i
30	O=C(c1cc2ccccc2oc1=O)N1CCN(C(=O)C2CCCO2)CC1 (stereo not given)	>57	i
31	O=c1[nH]c2ccsc2c(=O)n1-c1ccc(F)cc1	>57	i
32	CC(C)c1nnc(NC(=O)CCC(=O)NCc2ccco2)s1	i	i
33	N#Cc1cccc(-c2nc3cnc(Nc4ccccc4)nc3n(C[C@H]3CCCO3)c2=O)c1	.	i
34	COc1cc(S(=O)(=O)NCCc2ccc3c(c2)OCO3)ccc1-n1cnnn1	>57	i
35	COc1cccc2cc(C(=O)N3CCc4ccccc4C3)c(=O)oc12	>57	i
36	O=C(c1ccccc1)c1ccc(N2CCCC2)cc1	.	i
37	Cc1ccccc1-n1nnnc1SCc1ncc(-c2ccccc2)o1	>57	i
38	Cn1c(=O)c2c(nc(CN3CCc4ccccc4C3)n2Cc2ccccc2F)n(C)c1=O	>57	i
39	CCCOc1ccc(Cn2c(=O)oc3ccc(C)cc32)cc1OC	>57	i
40	O=C(Nc1ccccc1)N(CCCN1CCOCC1)Cc1cccs1	.	i
41	COc1cc2[nH]c(=O)n(Cc3ccc(C(=O)NCC4CCCO4)cc3)c(=O)c2cc1OC (stereo not given)	>57	i
42	Cn1c(Cn2c(=O)sc3ccccc32)nnc1SCC(=O)Nc1ccccc1F	.	i
43	CN1CCN(C(c2cccc(C(F)(F)F)c2)c2nnnn2C(C)(C)C)CC1 (stereo not given)	>57	i
44	COc1ccc(C(=O)/C=C/Nc2cc(C)on2)cc1	.	i
45	Cc1cc(Oc2ccccc2)nc(N)n1	>57	i
46	Cn1c(=O)oc2cc(S(=O)(=O)NCCN3CCCCCC3)ccc21	>57	i
47	Cc1nc2ccccc2nc1OCC(=O)Nc1cc(C(F)(F)F)ccc1N1CCOCC1	>57	i
48	O=C(Cn1c(=O)sc2ccccc21)Nc1ccc(S(=O)(=O)N2CCCCC2)cc1	>57	i
49	Cc1ccc(CN(CC2CCCO2)C(=O)CN2C(=O)C(C(C)C)Oc3ccccc32)o1 (stereo not given)	>57	i
50	COC(=O)c1c(NC(=O)c2ccco2)sc2c1C(C(=O)OC)CC2 (stereo not given)	.	i
51	O=C(COc1ccc(Cl)cc1)NCc1nnc(SCC(=O)N2CCCc3ccccc32)o1	>57	i
52	Cc1cccc(N2CCN(c3nnnn3-c3ccccc3)CC2C)c1 (stereo not given)	>57	i
53	CCc1nc(C)c(-c2ccccc2)c(=O)[nH]1	>57	i
54	O=S(=O)(Nc1ccc(-c2nc3ccccc3o2)cc1)c1ccccc1	>57	i
55	CC(=O)Nc1n[nH]c(S(=O)(=O)Cc2ccc(Cl)cc2Cl)n1	>26	.
56	CC(C)OCC(O)CSc1ccccn1 (stereo not given)	.	i
57	COc1ccc(Oc2ccc(S(=O)(=O)N3CCCCC3)cc2S(=O)(=O)N2CCCCC2)cc1	.	i
58	COc1cccc(-n2nnnc2SCC(=O)N2CCCc3ccccc32)c1	>57	i
59	Cc1cc(NC(=O)Cn2nc3c(cc2=O)CCCC3)ccc1Br	>57	i
60	O=C(COC(=O)c1ccccc1F)c1ccc(-n2nncc2-c2ccco2)cc1	>57	i

Entries of single compounds, quoted from the list. Screens in order: PK Bst	TsaE inh
Cc1cc(Oc2ccccc2)nc(N)n1 is entered as >57	i
Cc1cccc(N2CCN(c3nnnn3-c3ccccc3)CC2C)c1 (stereo not given) is entered as >57	i
COc1cccc(-n2nnnc2SCC(=O)N2CCCc3ccccc32)c1 is entered as >57	i
COc1ccc(C(=O)/C=C/Nc2cc(C)on2)cc1 is entered as .	i
O=S(=O)(Nc1ccc(-c2nc3ccccc3o2)cc1)c1ccccc1 is entered as >57	i

Next part:
no.	Molecule	PK Bst	TsaE inh
61	N#Cc1cccc(-c2cncnc2NCCc2cnc[nH]2)c1	.	i
62	Oc1ccc(Cl)cc1C=Nc1cnc2ccccc2c1	.	i
63	O=c1oc2c3c(nn2c2ccccc12)CCCC3	.	i
64	Cc1ccc(-c2nnn(CCC(=O)NC3CCCC3)n2)cc1	>57	i
65	CS(=O)(=O)c1ccc(N2CCOCC2)c(S(C)(=O)=O)c1	>57	i
66	CCN1CCN(c2cc3c(cc2F)c(=O)c(C(=O)O)cn3C2CC2)CC1	>26	.
67	Cc1cc(NC(=O)CSc2nnc(-c3ccco3)o2)no1	>57	i
68	COc1ccc(C2=CC(c3ccc(F)cc3)n3nnnc3N2)cc1 (stereo not given)	.	i
69	N#Cc1c(N)nc2c(c1-c1ccco1)CCCCC2	>57	i
70	CCNc1ncc2ncc(=O)n(C[C@H]3CCCO3)c2n1	.	i
71	CCCC(=O)NCCCc1nc2ccccc2n1C	.	i
72	CCOC(=O)N1CCN(CC(=O)c2ccc3c(c2)CCN3C(C)=O)CC1	.	i
73	CCOc1ccccc1N1CCN(c2nc3ccccc3nc2C(C#N)C(=O)OC(C)C)CC1 (stereo not given)	>26	.
74	CCOC(=O)c1ccc(NC(=O)CN2CCN(c3ccccc3)CC2)cc1	>57	i
75	O=C(Nc1ccc2oc(-c3ccccc3Cl)nc2c1)c1cncc(Br)c1	>57	i
76	CCN1CCN(C(=O)C2=C(C(=O)O)CCCC2)CC1	?	i
77	Cc1ccc(Nc2nc(C)cc(C)n2)c(Br)c1	.	i
78	Cc1ccc(CNC(=O)CCS(=O)(=O)c2ccc(Br)s2)o1	>57	i
79	COc1ccccc1CNc1nc(-c2c(C)noc2C)nc2ccccc12	.	i
80	O=C(O)Cn1nc(-c2ccccc2)c2ccccc21	.	i
81	CCOC(=O)N1CCN(S(=O)(=O)c2cc(Cl)c(OC)cc2Cl)CC1	.	i
82	O=C(Nc1nnc(C2CCCCC2)s1)c1ccc(Br)s1	>57	i
83	COc1cc(N2C(=O)NC3CC2(C)Oc2ccccc23)cc(OC)c1OC (stereo not given)	>57	i
84	CC(C)CCNc1nc2c(c(=O)[nH]c(=O)n2C)n1CC(O)COC(C)C (stereo not given)	>57	i
85	CC(NC(=O)COc1ccccc1)C(c1ccccc1)N1CCN(C)CC1 (stereo not given)	>57	i
86	Cc1cc(C)n2c(SCC(=O)NCc3ccco3)nnc2n1	>57	i
87	COC(=O)c1sc2ccccc2c1C(=O)OC	>57	i
88	COC(=O)c1c(NC(=O)C2CC=CCC2C(=O)O)sc(C(N)=O)c1C (stereo not given)	>11	i
89	C[C@H](O)[C@H](O)[C@@H](O)c1cnc2nc(N)[nH]c(=O)c2n1	.	i
90	CCOC(=O)c1c(C)[nH]c(C)c1C(=O)COC(=O)CCOc1ccccc1OC	>57	i
91	COc1ccc(CC2NCCC3(O)CCCCC23)cc1 (stereo not given)	>57	i
92	CO[C@@H]1/C=C\O[C@@]2(C)Oc3c(C)c(O)c4c(c3C2=O)C(=N[C@H]2CC[C@H](O)O[C@@H]2C)C=C(NC(=O)/C(C)=C\C(=O)[C@@H]2C[C@@H]2[C@@H](O)[C@H](C)[C@@H](O)[C@H](C)[C@H](OC(C)=O)[C@@H]1C)C4=O	.	i
93	CCOc1ccc(Br)cc1S(=O)(=O)Nc1ccccc1N1CCOCC1	>57	i
94	CCn1c(NCc2c[nH]c3ccccc23)nc2ccccc21	>57	i
95	CN(C)c1ccc(C(c2ccc(N(C)C)cc2)c2ccc([N+](=O)[O-])cc2)cc1	.	i
96	CCN(CC)CCn1c(=S)[nH]c2cc(Cl)ccc2c1=O	>57	i
97	CCOc1cc(C(=O)Nc2cc(=O)n(C)c(=O)n2C)cc(OCC)c1OCC	.	i
98	CCC(c1c(C)[nH]oc1=O)c1c(C)[nH]oc1=O	>57	i
99	CCC(Sc1ccc2nnc(-c3ccc(OC)c(OC)c3)n2n1)C(=O)O (stereo not given)	>57	i
100	COc1ccc(OC)c(S(=O)(=O)Nc2ccccc2F)c1	>57	i
101	CCC1Oc2ccccc2N(CC(=O)NCCCN2CCN(Cc3ccccc3)CC2)C1=O (stereo not given)	>57	i
102	COC(=O)CSc1nc(-c2cccs2)ccc1C#N	>26	.
103	CCCC(=O)Nc1ccc(C(=O)NCC(=O)OCC)cc1	>57	i
104	COc1ccc(S(=O)(=O)N2CCSC2c2ccccc2)cc1 (stereo not given)	>57	i
105	Cc1c(NS(=O)(=O)c2ccc3[nH]c(=O)[nH]c3c2)c(=O)n(-c2ccccc2)n1C	>57	i
106	CN(C)CCC(c1ccc(Br)cc1)c1ccccn1 (stereo not given)	>26	.
107	COC(=O)c1ccc(Oc2cc(C)nc(SC)n2)cc1	.	i
108	COC(=O)C1ON2OC(C(=O)OC)C(C(=O)OC)C2C1CC(C)=O (stereo not given)	>57	i
109	C=C(C)C1Cc2c(C)nn(-c3ccccc3)c2C1 (stereo not given)	>57	i
110	CSCCC(NC(=O)c1c(C)oc2c1CCCC2)C(=O)O (stereo not given)	.	i
111	CCN(CC(=O)NC1CCCCCC1)S(=O)(=O)c1ccccc1	>57	i
112	CCOC(=O)c1cnn(-c2nc3sc4c(c3c(=O)[nH]2)CCCC4)c1N	>57	i
113	Cc1ccc(S(=O)(=O)NC(=O)Nc2ncc3c(n2)CC(c2ccco2)CC3=O)cc1 (stereo not given)	>26	.
114	Cc1ccc2c(c1)c1cccc3c1n2CCN3CCC(N)=O	.	i
115	O=C(Cn1c(-c2ccccn2)nc2ccccc21)NCCN1CCOCC1	>57	i
116	CCOc1ccc2nc(SCC(=O)N(C)C3CCS(=O)(=O)C3)[nH]c2c1 (stereo not given)	>57	i
117	CCC(NS(=O)(=O)c1ccc(OC)cc1)C(=O)O (stereo not given)	>57	i
118	NC1=NC(c2ccc(Cl)cc2)n2c(nc3ccccc32)N1 (stereo not given)	>57	i
119	C/C(NC(=O)c1ccccc1F)=C1\C(=O)C[C@@H]2[C@H]1C2(C)C	>26	.
120	CCOC(=O)N1CCN(C(=O)Cn2ncc3c2-c2ccccc2OC3)CC1	.	i

3 compounds picked at random from those above, as already listed:
no.	Molecule	PK Bst	TsaE inh
101	CCC1Oc2ccccc2N(CC(=O)NCCCN2CCN(Cc3ccccc3)CC2)C1=O (stereo not given)	>57	i
108	COC(=O)C1ON2OC(C(=O)OC)C(C(=O)OC)C2C1CC(C)=O (stereo not given)	>57	i
118	NC1=NC(c2ccc(Cl)cc2)n2c(nc3ccccc32)N1 (stereo not given)	>57	i

Other compounds.
no.	Molecule	PK Bst	TsaE inh
121	c1csc(CSc2nnc3sc4ccccc4n23)c1	.	i
122	COc1ccc(Nc2nc3ccccc3c(=O)s2)c(OC)c1	>57	i
123	COC(=O)c1ccc(C(NC(=O)OCc2ccccc2)/C(F)=C/[C@@H](C)C(=O)NCc2nc3ccccc3s2)cc1 (stereo not given in full)	.	i
124	CCNc1ncc2nc(-c3ccc(F)cc3)c(=O)n(-c3ccccc3)c2n1	.	i
125	N#CCCCSc1nnc(-c2ccc(Cl)cc2)n1-c1ccccc1	.	i
